Compound activity from PubChem BioAssay.
Sfp inh: blocks B. subtilis Sfp PPTase activity | Q9F4F7 | Biochemical Sfp PPTase activity, qHTS | Potency, µM, for inactives: max response, negative = inhibition, actives largely listed as inhibitors | hit rate 3.5% among 310,000 | AID 1490; active = well fitted inhibition curve with a large enough effect; inconclusive = small, poorly fitted or top-dose-only effect, or another doubt; inactive = no such curve, though single readings can be large or run the other way;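 also: the enzyme is Sfp with the accession as filed and its product quenches rhodamine fluorescence; potency is read from the fitted curve at half-maximal effect; 0% = enzyme reaction without inhibitor and -100% = no enzyme wells; top concentration of the series not given in the record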
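Fluorescence-quenching assay with 15 nM Sfp, 5 uM rhodamine-CoA and 12.5 uM BHQ-2-labelled ybbR peptide in pH 7.6 Hepes/MgCl2 buffer. Enzyme was pre-incubated with compound for 15 min at room temperature. Rate was taken from the 30-min fluorescence change (525/598 nm).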
D2 PAM: human D2 receptor positive allosteric modulation. DiscoveRx D2 beta-arrestin cells, luminescence, 90 min; 100% = 57 uM dopamine signal. potentiation, % (test concentration not listed). hit rate 0.23% among 360,000. AID 624464; active = potentiation of 50% or more; inconclusive = 30% to 50%; inactive = 30% or less;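 also: compound concentration not given in the record; tested on top of an EC20 dose of dopamine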
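PathHunter beta-arrestin assay in DiscoveRx D2 cells. Compounds were added with an EC20 of dopamine (50 nM final) for 90 min at 37 deg C. Luminescence was read 1 h after detection reagent, with 57 uM dopamine as the EC100 control.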
D2 ag: agonists of human D2 dopamine receptor (beta-arrestin). P14416. DiscoveRx PathHunter D2 beta-arrestin, luminescence, 90 min; 100% = 57 uM dopamine signal. activation, % (concentration not given with the values). hit rate 0.084% among 360,000. AID 624465; in the data active = activation above about 40%; inconclusive = about 15% to 40%; inactive = below about 15%; also: compound concentration not given in the record; the text of the record calls up to 30% inactive
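DiscoveRx PathHunter D2 beta-arrestin cells (2,100/well) attached overnight, then compound-stimulated 90 min at 37 C in HBSS/10 mM HEPES/0.1% Tween-20 buffer; beta-galactosidase complementation read by luminescence after 1 h at ambient temperature. Dopamine 57 uM final (EC100) as control.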
TRPV1 PAM: potentiators of human vanilloid receptor 1 (TRPV1); Q8NER1; TRPV1-expressing cells, Fluo-8 calcium influx, capsaicin EC20 potentiation; host cell line not named in the record; control for the full effect not named in the record; potentiation, % at 8.33 µM; hit rate 0.02% among 320,000; AID 540277; active means potentiation above 80%; inconclusive means 30% to 80%; inactive means below 30%; also: 0% is about no effect
Target sequence (Q8NER1 whole entry, looked up): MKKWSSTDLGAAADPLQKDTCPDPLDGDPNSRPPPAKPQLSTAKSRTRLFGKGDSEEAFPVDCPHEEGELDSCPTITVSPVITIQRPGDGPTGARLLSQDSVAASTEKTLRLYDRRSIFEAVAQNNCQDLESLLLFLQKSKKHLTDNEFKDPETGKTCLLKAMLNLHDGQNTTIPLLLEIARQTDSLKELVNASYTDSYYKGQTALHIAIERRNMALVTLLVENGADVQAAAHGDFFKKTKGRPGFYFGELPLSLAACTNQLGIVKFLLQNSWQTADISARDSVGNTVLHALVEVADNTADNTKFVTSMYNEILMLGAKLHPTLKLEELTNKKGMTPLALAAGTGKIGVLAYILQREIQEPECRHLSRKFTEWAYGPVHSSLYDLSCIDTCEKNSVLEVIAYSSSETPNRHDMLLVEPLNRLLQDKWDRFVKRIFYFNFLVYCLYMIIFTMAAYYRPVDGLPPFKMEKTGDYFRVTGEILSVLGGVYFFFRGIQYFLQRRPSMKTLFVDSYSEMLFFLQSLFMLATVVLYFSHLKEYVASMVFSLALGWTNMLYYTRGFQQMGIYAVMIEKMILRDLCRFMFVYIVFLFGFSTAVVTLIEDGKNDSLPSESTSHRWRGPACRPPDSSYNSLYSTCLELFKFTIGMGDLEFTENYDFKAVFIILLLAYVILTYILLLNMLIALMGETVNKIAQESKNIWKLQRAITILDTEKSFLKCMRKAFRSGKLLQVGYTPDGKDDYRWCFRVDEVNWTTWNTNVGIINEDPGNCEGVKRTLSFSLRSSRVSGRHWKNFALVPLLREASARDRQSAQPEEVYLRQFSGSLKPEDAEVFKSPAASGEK
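Fluo-8 calcium influx in TRPV1-expressing cells, kinetic read (ex 480/em 520 nm). Compound added and read 3 min for agonist activity, followed by capsaicin at EC20 final and 2 min further read for enhancement.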
CtBP-E1A blk: CtBP/E1A binding inhibition. AlphaScreen GST-E1A/His-CtBP binding, 1536-well; hits give low values; control for the full effect not named in the record. activity change, % (no concentration beside the values). hit rate 0.49% among 340,000; in the data active means activity change below about -65%; inconclusive means about -30% to -65%; inactive means above about -30%; also: % is scaled to controls: 0 for no effect and ±100 for the full control effect; compound concentration not given in the record
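In 5 uL wells, 23 nL compound meets equimolar GST-E1A and His-CtBP (5X stock 125 nM each) for 2 h, 37 °C. Beads (5X, 50 ug/mL) then 1 h, 37 °C, dark.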
Six1-Eya2 inh: Six1/Eya2 interaction inhibition; AlphaScreen GST-Six1/His-Eya2 binding, biochemical; hits give low values; control for the full effect not named in the record; activity change, % (concentration not given with the values); hit rate 0.56% among 360,000; in the data active = activity change below about -65%; inconclusive = about -30% to -65%; inactive = above about -30%; also: % is scaled to controls: 0 for no effect and ±100 for the full control effect
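Compounds are tested against tagged Six1 and Eya2 proteins bridged by glutathione donor and nickel acceptor beads; after a one-hour incubation at 37 °C without light, AlphaScreen emission is recorded.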
PINK1 expr mod: modulators of PINK1 expression; PINK1 immunofluorescence, high-content cytometry, 24 h; Potency, µM (series often up to 76.6 µM), without a hit: at the highest dose activation (PINK1 increase), most hits filed as activators; hit rate 0.2% among 410,000; AID 624263; active = well fitted activation curve with a large enough effect; inconclusive = small, poorly fitted or top-dose-only effect; inactive = flat fitted curve, though single readings scatter; cell line not stated here;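 also: potency is read from the fitted curve at half-maximal effect; % of control where 0% means no effect; nearly all actives have a fitted effect of over 65% in size; a mitochondrial uncoupler was the plate control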
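Stable cell line, 250 cells/well, 12 h attachment; compounds pinned at 5 concentrations, 24 h; CCCP control. Fixed with nuclear dye, primary antibodies 12 h at 10 degrees C, secondary plus cell stain; laser-scanning cytometer read.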
Numbers without * were called inactive; ? = inconclusive; . = no result given; [ ] = dose if it differs, or a comment.

SMILES	Sfp inh	D2 PAM	D2 ag	TRPV1 PAM	CtBP-E1A blk	Six1-Eya2 inh	PINK1 expr mod
COC(=O)C12OCC34C(CC5C(C)=C(O)C(=O)CC5(C)C3C(O)C1O)OC(=O)C(OC(=O)C=C(C)C)C24 (stereo not drawn)	.	-25	-7.0	.	-2	1	-5.6%
CCOC(=O)C1CCCN(C(=O)/C=C/c2ccc(Cl)cc2)C1 (stereo not drawn)	10%	1	-3.9	3	3	5	-1.6%
O=c1c2cc(Cl)cc(Cl)c2nc2n1CCC2	14%	-17	1.3	-2	4	-3	1.8%
Cc1cc(C)cc(OCC(=O)Nc2ccc3c4c(cccc24)CC3)c1	16%	-7	-1.1	16	4	2	8.2%
COc1ccc(Cn2c(O)c(C=Nc3ccc(O)cc3)c3ccccc3c2=O)cc1	1%	-26	-5.4	7	-1	-23	6.1%
O=C(NCCn1c(-c2ccncc2)nc2ccccc21)[C@H]1CCCN1c1nc(CN2CCCCC2)cs1	16%	-14	-1.9	-9	0	8	-0.4%
CC(C)(C)NC(=O)C1c2ccccc2OCC(=O)N1Cc1cccnc1 (stereo not drawn)	.	.	.	.	9	5	0.5%
Cc1csc(SCC(=O)Nc2ccccc2[N+](=O)[O-])n1	10%	1	1.9	-1	-20	-12	1.0%
Cc1nn(C)c(C)c1NC(=O)COc1ccc(Cl)cc1	.	-3	-2.3	3	.	23	0.0%
Clc1cccc(Cl)c1Cn1ccc(C2CC2)n1	10%	3	0.2	11	4	16	8.5%
COc1ccc(CCN2CC(C(=O)Nc3cc(F)ccc3F)CC2=O)cc1OC (stereo not drawn)	.	-2	-1.0	-22	0	8	-0.2%
O=C(Nc1cccc(Cl)c1)c1ccc(S(=O)(=O)NCC2CCCO2)cc1 (stereo not drawn)	7%	-35	5.1	2	-13	0	6.8%
CCCCNC(=O)COC(=O)c1ccc(Cl)c(S(N)(=O)=O)c1	-15%	8	0.2	22	-3	10	-0.4%
COc1ccc(N2CCN(C(=S)Nc3ccc(F)cc3)CC2)cc1	19%	-4	2.9	-26	-1	15	-0.8%
CC(=O)Nc1ccc2c(c1)ncn2-c1ccc(C)cc1	12%	-25	-1.9	2	12	3	2.7%
Cc1[nH]c(=O)[nH]c(=O)c1S(=O)(=O)NCCOC12CC3CC(CC(C3)C1)C2	14%	17	-1.5	7	13	2	-3.6%
CCc1n[nH]c(=S)n1/N=C/c1c(C)nn(-c2ccccc2)c1Cl	-2%	-15	-1.9	-4	1	-10	-0.4%
O=C(/C=C/c1ccc(Br)o1)NC(c1ccccc1)c1ccccc1	20µM*	-41	-0.8	-2	-17	-1	8.2%
O=C(COC(=O)c1cn(-c2ccccc2)nc1-c1ccccc1)Nc1ncc(Cl)cc1Cl	-17%	-4	-2.0	-1	3	-3	4.9%
Nc1nn(-c2cccc(F)n2)cc1-c1ccccc1	13%	-3	0.1	-15	-4	-2	3.7%
Cc1nnc(SCC(=O)N2CCC(Cc3ccccc3)CC2)n(N)c1=O	-5%	-11	-1.3	25	0	25	-3.9%
CCc1nc(Cl)c(C#N)c2c1CSC(C)(C)C2	-1%	-10	0.1	-1	.	12	0.7%
CCc1ccc2[nH]c3nc(SCC(=O)NCC4CCCO4)nnc3c2c1 (stereo not drawn)	27%	-8	-1.3	-4	22	?	2.1%
CCOC(=O)CC1COCCN1C(=O)c1cc(COc2ccc(F)cc2Cl)on1 (stereo not drawn)	-5%	-24	-4.6	1	5	4	-0.7%
CCN(CC)C(=O)CSc1nc2sc(C)c(C)c2c(=O)[nH]1	15%	-21	-1.6	2	33	19	2.3%

More records:
SMILES	Sfp inh	D2 PAM	D2 ag	TRPV1 PAM	CtBP-E1A blk	Six1-Eya2 inh	PINK1 expr mod
COC(=O)CCC(=O)N1CCCC(CO)(Cc2ccccc2F)C1 (stereo not drawn)	7%	-27	0.7	-12	.	11	-1.6%
Cc1cccc(Cl)c1OCCCCn1ccnc1	16%	-7	-4.5	5	-8	-10	-3.3%[38.3 µM]
S=C(NCCCNC(=S)Nc1ccccc1)Nc1ccccc1	-11%	-3	0.2	3	-1	-7	0.2%
COc1ccc(CC(C)N2CCN(c3cccc(C(F)(F)F)c3)CC2)cc1OC (stereo not drawn)	0%	-19	5.6	-4	-17	-15	0.7%[38.3 µM]
O=c1c(-c2ccccc2)coc2cc(O)ccc12	-5%	4	-3.1	-8	2	0	0.9%
COc1ccc(N(C(=O)CNC(=O)c2ccco2)C(C(=O)NC2CCCC2)c2cccnc2)cc1 (stereo not drawn)	4%	8	-1.1	-15	6	13	2.2%
CCC1CCCCN1CCCNC(=O)c1ccc2c(c1)N(Cc1ccc(F)cc1)C(=O)c1ccccc1S2=O (stereo not drawn)	-9%	-30	0.9	3	-11	2	0.0%
C=CCNC(=O)C1CCN(S(C)(=O)=O)CC1	-1%	5	-2.3	5	7	-2	1.0%
Cc1cc(NC(=O)c2ccc(OCC3CCCO3)cc2)ccc1Br (stereo not drawn)	.	-12	-3.5	.	-8	2	1.8%
Cc1cccc(NC(=O)c2ccc(S(=O)(=O)N(C)C)cc2)n1	-7%	-3	-1.6	-25	-6	2	-1.1%
O=S(=O)(NCc1csc(-c2cccnc2)n1)c1ccc(Cl)s1	22%	-7	-2.3	19	0	0	0.0%
OC(COc1ccc(F)cc1Cl)CN1CCc2ccccc2C1 (stereo not drawn)	19%	-11	2.4	19	1	-3	1.7%
Cn1cc(/C=C(\NC(=O)c2ccccc2)C(=O)NCCCn2ccnc2)c2ccccc21	.	-18	-10	.	-4	-14	1.6%
C[C@H](CO)N1C[C@H](C)[C@@H](CN(C)Cc2cccnc2)OCc2cnnn2CCCC1=O	.	-1	0.8	.	-18	-6	0.9%
Cc1cc(=O)cc(C)n1-c1ccccc1N1CCOCC1	15%	-3	-3.9	11	-2	1	2.1%
N/C(=N\OC(=O)c1ccc(Cl)cc1Cl)c1ccncc1	6%	3	4.4	2	-16	-6	-1.3%
Cc1ccc(Nc2nc(N)nc(CCl)n2)c(C)c1	-4%	2	1.5	-2	2	-7	-4.5%
Cc1ccc(C(=O)O/N=C2\CC3CCC2(C)C3(C)C)cc1 (stereo not drawn)	8%	-4	-1.5	-11	16	6	6.6%[38.3 µM]
COc1cccc(N2CCN(C3CC(=O)N(c4cccc(Cl)c4)C3=O)CC2)c1 (stereo not drawn)	12%	-16	-0.1	-5	-14	-10	1.4%[38.3 µM]
O=C(Cc1ccccc1[N+](=O)[O-])N1CCc2ccccc2C1	23%	-2	-4.2	-23	-3	19	-1.1%
COC(=O)c1ccc(CSc2nc(-c3ccco3)cc(C(F)(F)F)n2)o1	?	3	-1.5	-5	14	16	11%
CSCCC(NC(=O)c1ccccc1)C(=O)NCC(C)(C)N1CCOCC1 (stereo not drawn)	.	-12	-1.5	1	.	3	1.0%
COc1ccc(N2C(=O)CC(NNC(=O)c3ccco3)C2=O)cc1 (stereo not drawn)	14%	6	5.3	3	-5	2	3.8%
C=CCC(C(=O)NC(C)c1ccccc1)C(=O)NC(C)c1ccccc1 (stereo not drawn)	-1%	-6	-4.0	?	0	-11	2.0%
CCOc1ccc(N(CC(=O)Nc2cccnc2)S(C)(=O)=O)cc1	28%	-7	-1.3	3	-3	5	2.3%

3 entries already listed, arranged by count of non-hydrogen atoms, rising:
SMILES	Sfp inh	D2 PAM	D2 ag	TRPV1 PAM	CtBP-E1A blk	Six1-Eya2 inh	PINK1 expr mod
O=C(Cc1ccccc1[N+](=O)[O-])N1CCc2ccccc2C1	23%	-2	-4.2	-23	-3	19	-1.1%
OC(COc1ccc(F)cc1Cl)CN1CCc2ccccc2C1 (stereo not drawn)	19%	-11	2.4	19	1	-3	1.7%
CCOc1ccc(N(CC(=O)Nc2cccnc2)S(C)(=O)=O)cc1	28%	-7	-1.3	3	-3	5	2.3%

Additional records
SMILES	Sfp inh	D2 PAM	D2 ag	TRPV1 PAM	CtBP-E1A blk	Six1-Eya2 inh	PINK1 expr mod
Cc1cc(C(=O)NC2CCCc3c2cnn3-c2ccc(C)c(C)c2)no1 (stereo not drawn)	5%	-22	-4.3	-9	2	-3	2.3%
Cc1cccc(NC(=O)CCCn2cc([N+](=O)[O-])cn2)n1	12%	-1	-5.8	-2	2	-8	0.3%
O=C(NCC(=O)N1CCCC1C(=O)O)OC1CCCCC1 (stereo not drawn)	9%	-19	-6.4	-9	1	0	1.7%
Cc1cccc(-n2c(C)cc(/C=N\NC(=O)c3ccco3)c2C)c1	7%	-22	-4.1	11	0	-7	3.7%
CCN(CC)S(=O)(=O)c1ccc2c(c1)nc(CCC(=O)Nc1ccc3c(c1)OCO3)n2CC	-1%	-6	-3.0	8	-14	-10	0.4%
Cc1ccc(Cn2c(=N)c(C(=O)NCC3CCCO3)cc3c(=O)n4cccc(C)c4nc32)cc1 (stereo not drawn)	-3%	-36	1.3	-11	0	5	0.8%
CC1(C)CC(=O)C(/C=N/c2ncccc2C(=O)O)=C(O)C1	-8%	?	-2.9	1	6	2	.
Cc1cc(C)c2c(CN3CCN(Cc4ccc5c(c4)OCO5)CC3)cc(=O)oc2c1	-9%	-17	-2.3	28	-7	-13	8.5%
O=C(Nc1ccccc1C(=O)NCC1CCCO1)c1ccccc1 (stereo not drawn)	5%	-8	-0.2	-2	2	0	-0.8%
CCCCNC(=S)NCC(c1ccccc1)c1c[nH]c2ccccc12 (stereo not drawn)	17%	-8	1.4	-28	-21	-19	?
COc1ccc(NC(=O)COC(=O)CCc2ccc(S(=O)(=O)N3CCOCC3)cc2)c(OC)c1	.	-3	-5.5	.	0	-1	-0.9%
CCOc1ccc(/C=c2\sc3nc(-c4ccco4)nn3c2=O)cc1OCC	-8%	-2	-0.8	-7	-1	-3	19%
COc1ccc(C(=O)Nc2nnc(-c3ccc(F)cc3)s2)c(OC)c1	8%	4	-3.8	15	-15	4	4.5%
O=C(c1cnn(C(=O)CN2CCCC2=O)c1)c1ccccc1O	.	5	-0.5	1	-4	6	3.5%
CC(=O)Oc1ccc(NC(=O)CCC2CCCCC2)c(C(=O)O)c1	0%	11	1.3	?	4	3	-0.4%
CCN(CC(=O)Nc1ccc(NC(C)=O)cc1)C(=O)Cc1cccc2ccccc12	7%	-6	-0.3	-7	-12	14	-0.9%
COc1ccccc1N1CCN(/N=C\c2cccnc2)CC1	?	-26	5.3	-6	-3	5	2.9%
COc1ccc(Cc2nc(-c3ccccn3)no2)cc1	-4%	-1	-1.7	-2	6	2	2.4%
